GLP1R inv ag: GLP-1 receptor (human) inverse agonism; P43220; HEK293 GLP-1R CRE-luciferase, luminescence, 24 h; GLP-1R form is constitutively active; hit rate 1.6% among 410,000; Potency, µM (doses to about 38.3 µM), without a hit: at the top dose activity change, negative = inhibition, most hits filed as inhibitors; AID 624417; further: potency means the concentration at half of the fitted maximal effect; on the % scale 0 is the no-effect control and ±100 the full control effect; nearly all actives have a fitted effect of over 55% in size
Target sequence (P43220 whole entry, looked up): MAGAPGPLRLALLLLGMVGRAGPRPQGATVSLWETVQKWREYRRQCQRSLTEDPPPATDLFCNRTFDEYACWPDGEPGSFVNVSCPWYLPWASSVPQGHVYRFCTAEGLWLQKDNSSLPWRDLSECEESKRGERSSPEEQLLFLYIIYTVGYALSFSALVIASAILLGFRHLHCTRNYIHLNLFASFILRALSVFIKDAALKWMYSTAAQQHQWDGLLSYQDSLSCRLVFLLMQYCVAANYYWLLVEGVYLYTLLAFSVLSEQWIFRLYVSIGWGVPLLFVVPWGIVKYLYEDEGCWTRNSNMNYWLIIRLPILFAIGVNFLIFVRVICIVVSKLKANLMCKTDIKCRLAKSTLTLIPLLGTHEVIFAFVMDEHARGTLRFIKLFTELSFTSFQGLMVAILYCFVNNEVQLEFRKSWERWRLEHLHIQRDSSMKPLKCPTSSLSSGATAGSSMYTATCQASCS
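Inverse agonists were sought by their lowering of basal cAMP reporter luciferase output in HEK293 cells stably carrying constitutively active human GLP-1R, after 24 h compound treatment.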
TDP43 rescue: inhibitors of TDP-43 toxicity in yeast; TDP-43 expressing yeast growth rescue, BacTiter-Glo, 24 h; Potency, µM (doses to about 46.1 µM), for inactives: at the highest dose growth rescue (activation), actives largely listed as activators; hit rate 1.8% among 410,000; AID 652104; further: potency means the concentration at half of the fitted maximal effect; % of control where 0% means no effect; nearly all actives have a fitted effect of over 50% in size
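Yeast cells expressing TDP-43 under galactose induction are exposed to compounds for 24 hr at 30 deg C. BacTiter-Glo luminescence measures growth, so protective compounds score as activators.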
MmCpn inh: inhibitors of Methanococcus maripaludis chaperonin (MmCpn); purified Mm-Cpn ATPase, ADP Transcreener TR-FRET; Potency, µM (highest dose often 76.9 µM), for inactives: at the top dose activity, negative = inhibition, actives largely listed as inhibitors; hit rate 0.031% among 330,000; AID 504842; further: potency means the concentration at half of the fitted maximal effect; on the % scale 0 is the no-effect control and ±100 the full control effect; nearly all actives have a fitted effect of over 80% in size
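ATP (10 uM final) was added to archaeal chaperonin (25 nM final) after 10 min exposure to test compound at 37°C; after 30 min further incubation, ADP was detected by competitive TR-FRET.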
FUS suppressor: suppressors of FUS proteinopathy in yeast | S. cerevisiae FUS-expressing, growth rescue, OD600, 24 h | Potency, µM (series often up to 76.6 µM), for inactives: at the top dose growth rescue (activation), actives largely listed as activators | hit rate 0.24% among 390,000 | AID 1347120;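 further: potency means the concentration at half of the fitted maximal effect; plate controls were DMSO vehicle for no effect and reference control for full effect; nearly all actives have a fitted effect of over 55% in size; some results filed as inactive show a strong effect at the top dose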
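Quantitative HTS measuring growth restoration of FUS-toxic yeast. Galactose-induced cells (OD 0.005) were exposed 24hr at 30C to compounds at several concentrations, then absorbance at 600 nm was recorded.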
Abeta yeast res: compounds reversing amyloid beta toxicity in yeast. yeast expressing A-beta42, growth rescue, OD600, 48 h; response scale: 0% DMSO, 100% iron-clioquinol control. hit rate 0.063% among 410,000. AID 1347071. Potency, µM (doses to about 46.1 µM), inactives show at the highest dose growth rescue, usual class: activators; further: potency means the concentration at half of the fitted maximal effect; nearly all actives have a fitted effect of over 55% in size
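Growth rescue measured by 600 nm absorbance after 48 h yeast culture at 30 C with compound. Values normalized between DMSO and an equimolar ferric chloride plus clioquinol control.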
GLP1R cytotox: cytotoxic in the GLP-1 receptor inverse agonist counter-screen. Potency, µM (doses to about 38.3 µM), inactives show top-dose activity change, negative = inhibition, actives largely listed as inhibitors. HEK293 cAMP-luciferase reporter cells, luminescence, 24 h. hit rate 0.13% among 410,000;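 further: loss of luciferase light is scored as toxicity; potency means the concentration at half of the fitted maximal effect; on the % scale 0 is the no-effect control and ±100 the full control effect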
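Step one: seed cells (200 cells/uL, DMEM with 10% Nu serum, 1% pen-strep). Step two: 12-hour incubation at 37 deg C. Step three: pin 23 nL compound, incubate 24 hr. Step four: add luciferase reagent, read luminescence 12 min later.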
pAkt inh: inhibitors of Akt phosphorylation. Neuro2A IGF-stimulated pAkt S473 HTRF, 20 min; stronger effect = lower value. activity change, % for hits at 50 µM. hit rate 0.32% among 360,000. AID 651550; in the data active means activity change below about -80%; inconclusive means mostly about -51% to -80%; further: on the % scale 0 is the no-effect control and ±100 the full control effect
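Neuro2A cells in DMEM with 0.5% FBS, overnight at 37 deg C, given compound at single 50 µM final, then IGF (6 nM final) for 20 min at 37 deg C. Lysed; phospho-Akt Ser473 by HTRF after 24 h, 665/615 ratio.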
aSyn yeast inh: alpha-synuclein toxicity inhibition in yeast; Yeast expressing alpha-synuclein, growth rescue, BacTiter-Glo, 24 h; Potency, µM (series often up to 46.1 µM), for the others: at the top dose growth rescue (activation), actives largely listed as activators; hit rate 0.14% among 370,000; further: potency means the concentration at half of the fitted maximal effect; % of control where 0% means no effect; nearly all actives have a fitted effect of over 65% in size
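Galactose-induced alpha-syn yeast (OD600=0.02, raffinose-pregrown) + pinned cpd, 24 hr, 30 deg C; growth by BacTiter-Glo luminescence. Growth restoration scores as activation.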
Starred values were filed as active, the others as inactive; i = inactive; ? = inconclusive; / = no result given; [ ] = remark or other dose. Unless noted, the call rests on the fitted dose curve; in most records, active means well fitted curve in the direction sought with a large enough effect; inconclusive means small, poorly fitted or top-dose-only effect, or another doubt; inactive means no such curve, though single readings can be large; an effect the other way counts as inactive or inconclusive. An excerpt (hit frequency here may not be typical).

SMILES	GLP1R inv ag	TDP43 rescue	MmCpn inh	FUS suppressor	Abeta yeast res	GLP1R cytotox	pAkt inh	aSyn yeast inh
CCOC(=O)N1CCN(C(=O)CN(c2ccc(OCc3ccccc3)cc2)S(C)(=O)=O)CC1	20%	-6%	-7%	43%	-7%	2%	/	0%
CC[n+]1c(/C=C/N(C)c2ccccc2)oc2ccc(Cl)cc21	-7%	-5%	-2%	15%	-1%	-4%	i	0%
Cc1nn(Cc2c(F)c(F)c(F)c(F)c2F)c(C)c1NC(=O)c1ccnn1C	11%	0%	1%	5%	19%	0%	i	-8%
CC(C)C(C)(C#N)NC(=O)CSc1nnc(C(F)(F)F)n1C (centres undefined)	-9%	1%	1%	6%	9%	47%[activator]	i	-3%
COc1ccc(N(CC(=O)NC2CC3CCC2C3)S(=O)(=O)c2ccc(C)c([N+](=O)[O-])c2)cc1 (centres undefined)	-17%	0%	0%	5%	0%	-2%	i	1%
Cc1cc(=O)oc2cc(OCC(=O)OCC(=O)NC(=O)NC(C)C)ccc12	1%	15%	1%	-33%	-14%	15%	i	-4%
CCOc1ccc(C(=O)N2CCCC2C(=O)O)cc1 (centres undefined)	-2%	-10%	-1%[15.4 µM]	6%	-4%	0%	i	2%
COc1ccc(-c2nnc(SC)o2)c(OC)c1	18%	-18%[0.397 µM]	-4%	17%	-4%	-1%	i	1%
Oc1ccc(CNCC2COc3ccccc3O2)cc1 (centres undefined)	-12%	-10%	0%	?	3%	7%	i	0%
O=C(CN1CCN(CCC(=O)Nc2ccccc2F)CC1)Nc1ccc(F)cc1	-8%	-31%[inhibitor]	-1%	14%	-12%	1%	i	-6%
O=C1CN(C(=O)CSc2nnnn2C2CC2)c2ccccc2N1	2%	-14%	2%	13%	-7%	1%	i	-10%
Cc1nnc(NC(=O)CSc2nnc(CCNC(=O)c3ccccc3F)n2C)s1	7%	-11%	-2%	22%	-8%	15%	i	-3%
CC1(C)Cc2c(c(-c3ccco3)nc3sc4c(NCC5CCCO5)ncnc4c23)CO1 (centres undefined)	108%[activator]	-8%	-1%	/	5%	85%[activator]	i	21%
Cc1ccc(N(CC(=O)NC2CC3CCC2C3)S(C)(=O)=O)cc1C (centres undefined)	-1%	-4%	1%	13%	9%	4%	i	4%
CC(C)C[C@H](NC(=O)c1nc[nH]c1C(=O)N1CCNCC1)C(=O)OC(C)(C)C	1%	-12%	-1%	-5%	0%	1%	i	-5%
CCC(C)NC(=O)c1cc(-c2cccc(OC)c2)on1 (centres undefined)	-9%	?	/	18%	-5%	0%	/	/
Cc1nnc(SCC(=O)N2CC(=O)Nc3ccccc32)n1Cc1ccccc1	6%	8%	-2%	9%	8%	40%[activator]	i	-4%
CCNC(=O)N1C(=O)C2(OCCO2)c2ccccc21	-4%	7%	2%	-32%	23%	6%	i	-1%
COC(=O)[C@H](C(C)C)N(Cc1ccccc1)S(=O)(=O)CCN1CCCC1	-15%	12%	-1%	-7%	-7%	3%	i	-2%
CC(=O)N1CCc2cc(C(=O)CN3CCC(C)CC3)ccc21	59%[activator]	-3%	-2%	30%	-6%	2%	i	-1%
COCCNCc1ccc(Cl)cc1Cl	13%	3%	-3%	-16%	7%	5%	i	-7%
Cc1ccc(NC(=O)N2C(=O)C3(OCCO3)c3ccccc32)cc1	0%	0%	0%	-36%	18%	-2%	i	-3%
O=C(CSc1nc(O)cc(=O)[nH]1)C1CC1	4%	-2%	0%	24%	9%	78%[activator]	i	-4%
O=C(O)CN1C(=O)SC(Nc2ccc(C(=O)O)cc2)C1=O (centres undefined)	-27%	-15%	-1%	-3%	-7%	-5%	i	-1%
Cn1nnnc1SCCCNCc1cc(Cl)ccc1OCc1ccccc1	?	0%[9.22 µM]	/	-13%	-3%	-17%	/	/

Brought forward from above: five compounds, followed by the next part.
SMILES	GLP1R inv ag	TDP43 rescue	MmCpn inh	FUS suppressor	Abeta yeast res	GLP1R cytotox	pAkt inh	aSyn yeast inh
COCCNCc1ccc(Cl)cc1Cl	13%	3%	-3%	-16%	7%	5%	i	-7%
Cc1ccc(NC(=O)N2C(=O)C3(OCCO3)c3ccccc32)cc1	0%	0%	0%	-36%	18%	-2%	i	-3%
O=C(CSc1nc(O)cc(=O)[nH]1)C1CC1	4%	-2%	0%	24%	9%	78%[activator]	i	-4%
O=C(O)CN1C(=O)SC(Nc2ccc(C(=O)O)cc2)C1=O (centres undefined)	-27%	-15%	-1%	-3%	-7%	-5%	i	-1%
Cn1nnnc1SCCCNCc1cc(Cl)ccc1OCc1ccccc1	?	0%[9.22 µM]	/	-13%	-3%	-17%	/	/
NC(=O)c1ccc(S(=O)(=O)N2CCSCC2)cc1	7%	-10%[1.82 µM]	1%	-6%	14%	-3%	i	2%
COc1ccc(-c2ccc(=O)[nH]n2)cc1	0%	16%	-6%	15%	0%	-17%	i	-2%
O=C(Nc1ccccc1)C1=C(O)CC(c2ccoc2)CC1=Nc1ccccc1 (centres undefined)	?	-1%	0%	1%	-4%	5%	i	2%
O=C(NN=Cc1c(F)c(F)c(F)c(F)c1F)c1ccc(NS(=O)(=O)c2cccs2)cc1	9%	15%	0%	/	-4%	-18%	i	-6%
O=C(NCN1CCN(CCO)CC1)c1cnccn1	6%	-11%	0%	-9%	-6%	-22%	i	0%
CC(C)(C)S(=O)(=O)N1C[C@@H]2CC/C=C\C/C=C\2[C@H]1CCO	5µM*	0%	/	-5%	4%	-4%	i	-2%
CC(C)N(C(=O)COC(=O)c1ccc([N+](=O)[O-])cc1)c1ccccc1	-22%	3%	-2%	-28%	16%	14%	i	-2%
CCOC(=O)N1CCN(CCC(=O)Nc2ccc(C)c(Br)c2)CC1	?	5%	-1%	-9%	4%	54%[activator]	i	-7%
COC(=O)C1=NN(c2ccccc2OC)C2C(=O)N(c3ccccc3OC)C(=O)C12 (centres undefined)	28%	-14%	0%	/	0%	26%	i	-5%
COc1cc2nc(NCCc3cccc(C)c3)n3nc(-c4ccccc4)nc3c2cc1OC	-7%	-3%	/	5%	-19%	-6%	/	/
COc1ccc(CNCCCSc2nnnn2C)c(OC)c1	-14%	?	/	-19%	-13%	-1%	/	/
CCOC(=O)c1[nH]c2ccc(Cl)cc2c1-c1ccccc1	0%	20%	-2%	5%	9%	13%	i	1%
CCN1CCN(CCC(=O)Nc2ccc(Br)cc2)CC1	-57%	-15%[0.397 µM]	2%	28%	-6%	22%	i	0%
COC(=O)c1cc(=O)nc2sc3cc(OC)ccc3n12	8%	-8%	-4%	14%	-8%	1%	-114%*	-13%
Nc1cc(=O)nc(SCC(=O)NC2CCCCC2)n1-c1ccccc1	0%	11%	1%	7%	-8%	3%	i	-1%
C/C(=N\NC(=O)c1ccc(NS(=O)(=O)c2cccs2)cc1)c1ccc(C(C)(C)C)cc1	-18%	?	3%	16%	-1%	-5%	i	7%
CCc1ccc(-c2nc(CS(=O)CC(=O)NCCc3ccccc3)c(C)o2)cc1 (centres undefined)	?	-11%	-1%	32%	-4%	-2%	i	17%
COc1cccc2cc(C(=O)CS(=O)(=O)c3ccc(C)cc3)c(=O)oc12	-17%	14%	1%	19%	?	-14%	i	2%
Cc1ccc(/C=C2/Sc3ccc(C(=O)N4CCN(c5ccccn5)CC4)cc3NC2=O)cc1	5%	0%	-4%	2%	-6%	7%	i	0%
FC(F)(F)c1ccccc1NC(=S)NN1CCOCC1	0%	-2%	-3%	-1%	-9%	-10%	/	/
CCOC(=O)N1CCN(CCC(=O)Nc2ccc(Br)c(C)c2)CC1	?	12%[9.22 µM]	1%	7%	-8%	-5%	i	2%
COCCOc1cc(N)c(Cl)cc1Cl	-17%	?	0%	-4%	3%	17%	i	1%
CC(/C=C/c1cccc([N+](=O)[O-])c1)=N\NC(=O)c1ccncc1	21%	9%	-2%	-3%	-45%[inhibitor]	-7%	i	-1%
COc1cc2c(cc1OC)C1(CCCC1)CNC2C (centres undefined)	10%	-23%	2%	-7%	2%	-5%	i	-4%
O=C(CSc1nnc(CNc2cccc(Cl)c2)o1)OC1CCCCC1	0%	25%	1%	47%	18%	33%	i	27%

(listing goes on)
SMILES	GLP1R inv ag	TDP43 rescue	MmCpn inh	FUS suppressor	Abeta yeast res	GLP1R cytotox	pAkt inh	aSyn yeast inh
N#C/C(=C(/O)CN1C(=O)c2ccccc2C1=O)c1nc2ccccc2[nH]1	-14%	3%	-1%	-2%	-4%	-10%	i	1%
Cc1ccc2[nH]c(=O)c(N3CCOCC3)c(-c3ccccc3)c2c1	0%	-13%	-4%	8%	4%	1%	i	-1%
COc1ccccc1NC(=O)C(=O)N(c1cccnc1)C(C(=O)NC(C)(C)C)c1ccccc1 (centres undefined)	-9%	-8%	0%	-19%	-9%	-6%	i	3%
COc1ccc(C(=O)Nc2ccc(C3(C#N)CCCC3)cc2)cc1OC	9%	28%	0%	?	-4%	-15%	i	-5%
C=CCN(c1ccc(C(=O)OC)cc1)S(=O)(=O)c1ccccc1	-8%	11%	-2%	/	-4%	9%	i	-1%
CC(NC(=O)C1c2ccccc2Oc2ccccc21)C1CCCO1 (centres undefined)	-19%	/	0%	10%	6%	5%	i	12%
CCOC(=O)C1=NN(c2ccc(OC)cc2)C2C(=O)N(c3ccccc3OC)C(=O)C12 (centres undefined)	5%	-2%	-6%	?	25%	0%	i	4%
O=C(NCC1CCCO1)C1c2ccccc2Oc2ccccc21 (centres undefined)	-7%	-10%	2%	-5%	5%	3%	i	0%
COc1ccc(-c2cc(C(=O)Nc3ccc(C)cc3)no2)cc1	-1%	-13%	/	14%	8%	-1%	i	-14%
Cc1ccc(CNc2nc3ccccc3c3nc(-c4cccc(C)c4)nn23)cc1	22%	25%	/	18%	-3%	1%	/	/
COc1ccc(-n2c(N)cc(=O)nc2SCC(=O)N2CCN(c3ccccc3)CC2)cc1	-2%	-9%	5%	/	-7%	-24%	i	-5%
CCCS(=O)(=O)N1CCC(C(=O)NCCCN(CC)c2cccc(C)c2)CC1	?	2%	2%	-2%	25%	-10%	i	4%

Bioassay records as filed in PubChem BioAssay.
